Compound activity as filed in PubChem.
NPYLR7 ag: activates Aedes aegypti NPYLR7 receptor; activation, % at 10 µM; HEK293T NPYLR7/Galpha15, GCaMP6s calcium fluorescence; hit rate 0.15% among 270,000; in the data active = activation above about 40%;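 note: 0% = vehicle and 100% = reference agonist at the receptor; some compounds past the cut are filed as inactive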
NPYLR7 ag max-min: second read-out of NPYLR7 ag, no call of its own (marks repeat the call); activation, %; measured here: Max-Min RFU normalised activation; some inactives read as strong as hits;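 span of the calcium signal over five minutes; 0% = vehicle and 100% = native peptide agonist; compound fluorescence can raise it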
Active calls of the source: *.

1. Cc1nc(N(C)C)nc(N2CCCC3(CC2)CN(C)C(=O)O3)c1C (stereo not drawn)
2. Cc1occc1CNC(=O)C1CSCN1C(=O)C(C)(C)C (stereo not drawn)
3. CCN(c1cccc(F)c1)S(=O)(=O)c1cc(C(=O)O)cs1
4. CN(Cc1ccc2ccccc2n1)C(=O)/C=C/c1cnn(C)c1
5. CCC(=O)N[C@@H]1c2ccccc2C2(CCN(C(=O)c3cnsn3)CC2)[C@H]1OCc1cccnc1
6. NC(=O)c1cccc(NC(=O)[C@@H]2CCCN2c2nccc(Nc3ccccc3)n2)c1

screen / no.,1,2,3,4,5,6
NPYLR7 ag,-2.5,8.6,-3.5,2.3,22.0,0.6
NPYLR7 ag max-min,12.3,2.4,-2.7,1.5,6.6,3.6

Fetched one by one from above (3):
3. CCN(c1cccc(F)c1)S(=O)(=O)c1cc(C(=O)O)cs1
2. Cc1occc1CNC(=O)C1CSCN1C(=O)C(C)(C)C (stereo not drawn)
5. CCC(=O)N[C@@H]1c2ccccc2C2(CCN(C(=O)c3cnsn3)CC2)[C@H]1OCc1cccnc1

screen / no.,3,2,5
NPYLR7 ag,-3.5,8.6,22.0
NPYLR7 ag max-min,-2.7,2.4,6.6

Next part:
7. COc1ccccc1Nc1nc(-c2c(C)nc3ncccn23)cs1
8. CC(=O)Nc1ccc(-n2ccc3c(cnc4nc(C(F)(F)F)nn43)c2=O)cc1
9. COc1ccc(NC(=O)NCCCn2nc(-c3ccco3)ccc2=O)cc1
10. CCc1nc2ccc(C(=O)NCCCN3CCCC3=O)cn2c1N(C=O)CCC(C)C
11. O=c1cnnc(SCc2ccc(Br)cc2)[nH]1
12. CCS(=O)(=O)Nc1cccc(C2SCC(=O)N2c2ccc(C(F)(F)F)cc2)c1 (stereo not drawn)

screen / no.,7,8,9,10,11,12
NPYLR7 ag,-19.9,0.5,1.5,-5.3,9.4,0.9
NPYLR7 ag max-min,-28.2,4.2,1.2,-10.1,8.0,9.2

13. Cc1ccc(CC(=O)N=c2sc3cc4c(cc3n2C)OCCO4)cc1C
14. Cc1cncc(NCc2ccccc2)n1
15. COc1cccc(-c2cc(C(=O)N(CCN(C)C)Cc3ccccc3)n3nc(-c4ccccc4)cc3n2)c1
16. O=C(NCCCn1cnc2ccccc21)C1CCCN1C1=NS(=O)(=O)c2ccccc21 (stereo not drawn)
17. CCc1cccc(CC)c1NC(=O)Cn1nc(-c2ccco2)c2sc(N3CCCC3)nc2c1=O
18. CC(C)c1csc(CN2CCC(CNS(C)(=O)=O)C2)n1 (stereo not drawn)

screen / no.,13,14,15,16,17,18
NPYLR7 ag,15.5,-0.9,12.1,3.8,-2.6,16.9
NPYLR7 ag max-min,10.5,-4.2,14.7,10.3,-5.9,6.8

19. C=CCNC(=O)c1ccc2c(c1)S(=O)(=O)N=C1CCCCCN12
20. COc1ccc(OCC(O)CN(Cc2nc3scc(-c4ccccc4C)c3c(=O)[nH]2)C2CC2)cc1 (stereo not drawn)
21. OC(COCc1ccccc1)CN(Cc1ccc(F)cc1)CC1CC(c2ccc3c(c2)OCO3)=NO1 (stereo not drawn)
22. COC(=O)c1ccccc1C(=O)N1CCN(C(=O)c2cn(C)cc3c(=O)n(-c4ccccc4)nc2-3)CC1
23. COC(=O)c1ccc(NC(=O)Cn2ccn3nc(-c4ccc(OC)cc4)cc3c2=O)cc1
24. O=C(NNC(=O)c1ccc(F)cc1)C1=CC=CN2CCS(=O)(=O)N=C12

screen / no.,19,20,21,22,23,24
NPYLR7 ag,4.5,-1.0,-2.5,-0.3,6.5,0.4
NPYLR7 ag max-min,0.8,4.7,4.8,-1.1,-1.3,15.1

25. O=C(c1cn(Cc2c(F)cccc2F)nn1)N1CCN(C2CCCCC2)C(=O)C1
26. CC1=CC[C@@H]2CN(c3nc(C)ccc3C(N)=O)C[C@@H]2C1
27. Cc1cc2oc(=O)cc(C)c2cc1NC(=O)C1CC(C(C)C)=NO1 (stereo not drawn)
28. Cc1ccc2c(c1)CCCN2Cc1nc2ccccc2c(=O)[nH]1
29. CCN1CCN(S(=O)(=O)c2ccc(OC)c(N3CCN(C(=O)CCCC(=O)OC)CC3)c2)CC1
30. Cc1ccc(Nc2nc(NCC3CCCO3)nc3c2cnn3-c2ccccc2)cc1C (stereo not drawn)

screen / no.,25,26,27,28,29,30
NPYLR7 ag,10.4,0.3,10.7,11.0,3.1,1.5
NPYLR7 ag max-min,4.7,2.6,-4.1,10.1,2.0,-0.4

31. CCOc1cc(C)c(C)cc1S(=O)(=O)NCc1ccc2c(c1)OCO2
32. CCOc1ccc(NC(=O)NCC(=O)Nc2cccnc2)cc1C
33. N#CCSc1nsc(SCC#N)n1
34. Cc1ccc(CNC(=O)CCCc2ccc3[nH]c(=O)[nH]c3c2)n1C
35. CSCCNC(=O)c1ccc(OC2CCN(C(=O)C3CC3)CC2)cc1
36. CN(CCCNC(=O)c1cccnc1Oc1ccccc1)c1ccccc1

screen / no.,31,32,33,34,35,36
NPYLR7 ag,3.0,20.4,0.3,1.9,5.7,-11.9
NPYLR7 ag max-min,1.5,12.5,2.5,-0.3,10.6,-17.1

37. CCCCc1ccc(-c2nc(C=Nc3ccccc3Br)c(O)o2)cc1
38. COc1ccc2c(c1)OC[C@@H]1CN(C)C(=O)CCN(C(=O)COc3ccccc3)[C@H]21
39. NC(=O)COc1cccc(NC(=O)C2(c3ccc(Cl)cc3)CCCC2)c1
40. CCOc1ccc(N2C(=O)CC(SC(N)=N/N=C\c3c(O)ccc4ccccc34)C2=O)cc1 (stereo not drawn)
41. C(=Nc1ncn[nH]1)c1c2ccccc2cc2ccccc12
42. CSc1nc2ccc(S(=O)(=O)Nc3ccccc3C)cc2s1

screen / no.,37,38,39,40,41,42
NPYLR7 ag,-7.2,16.5,-0.8,-11.2,-5.2,2.7
NPYLR7 ag max-min,-21.1,31.2,-0.8,-18.5,-13.6,11.6

43. CCS(=O)(=O)Oc1ccc(CN(CC(C)C)C(C)=O)cc1
44. COc1cc(OC)cc(-c2noc(-c3ccc4c(=O)n(CCc5ccccc5)c(=O)[nH]c4c3)n2)c1
45. CN(C)c1ccc(NC(=O)C2CCCC2)cc1CN(CC1CC1)S(C)(=O)=O
46. COC(=O)c1ccc(N2C(=O)/C(=C/c3ccc(-c4ccc(Cl)c(Cl)c4)o3)C=C2c2ccccc2)cc1
47. O=C(CCc1nc(-c2ccc(F)cc2)no1)NCC12CC3CC(CC(C3)C1)C2
48. CCc1ccc(C2C(C(=O)OCc3ccccc3)=C(C)NC3=C2C(=O)CC(c2ccccc2)C3)cc1 (stereo not drawn)

screen / no.,43,44,45,46,47,48
NPYLR7 ag,-10.9,5.3,27.6,-1.7,-3.1,-9.8
NPYLR7 ag max-min,-6.3,4.0,25.7,5.4,-10.6,-13.9

49. NC(=O)c1nnc2n1CCN(C(=O)c1ccc3c(c1)CCO3)C2
50. COCCNS(=O)(=O)c1ccc(OC)c(N2CCN(S(=O)(=O)c3cccc(Cl)c3Cl)CC2)c1
51. O=C(O)c1cc(N2C(=O)/C(=C/c3ccc(-c4ccc(Cl)c(Cl)c4)o3)C=C2c2ccccc2)ccc1Cl
52. COc1ccc(Cl)cc1NC(=O)c1cc2ccccc2oc1=O
53. N#CCc1cccc(C(=O)NS(=O)(=O)c2cccc(Cl)c2)c1
54. C=CCN(CC(=O)N(CCc1ccccc1)Cc1ccc(C)o1)C(=O)c1ccccc1Cl

screen / no.,49,50,51,52,53,54
NPYLR7 ag,8.3,17.2,11.4,-7.4,5.3,10.2
NPYLR7 ag max-min,4.0,18.5,8.5,-13.9,3.7,17.2

55. CCNC(=O)N(CCN(C)C)Cc1cc(Cl)ccc1OS(=O)(=O)c1ccc(NC(C)=O)cc1
56. COc1ccccc1C(=O)N1CCN(C(C(=O)Nc2ccc(C)c(F)c2)C2CCCC2)CC1 (stereo not drawn)
57. CCCCN(Cc1cccn1Cc1ccc(Br)cc1)C(=O)CN(CCCC)C(=O)c1cccc(Cl)c1
58. Nc1ccc(Cl)c(-c2nc3ncccc3o2)c1
59. CS(=O)(=O)N1CCC(C(=O)Nc2ccccc2NC(=O)c2cccc(Cl)c2)CC1
60. COc1cc(COc2ccc(C(N)=O)cc2)ccc1OC(F)F

screen / no.,55,56,57,58,59,60
NPYLR7 ag,6.8,-4.4,2.6,4.6,1.1,20.3
NPYLR7 ag max-min,16.9,34.1,6.3,1.4,-3.0,14.2

A second format for some results above.
(17) CCc1cccc(CC)c1NC(=O)Cn1nc(-c2ccco2)c2sc(N3CCCC3)nc2c1=O
  NPYLR7 ag: -2.6	NPYLR7 ag max-min: -5.9

(18) CC(C)c1csc(CN2CCC(CNS(C)(=O)=O)C2)n1 (stereo not drawn)
  NPYLR7 ag: 16.9	NPYLR7 ag max-min: 6.8

(19) C=CCNC(=O)c1ccc2c(c1)S(=O)(=O)N=C1CCCCCN12
  NPYLR7 ag: 4.5	NPYLR7 ag max-min: 0.8

(20) COc1ccc(OCC(O)CN(Cc2nc3scc(-c4ccccc4C)c3c(=O)[nH]2)C2CC2)cc1 (stereo not drawn)
  NPYLR7 ag: -1.0	NPYLR7 ag max-min: 4.7

Carrying on:
61. O=c1c2c3c(sc2n2c(=S)[nH]nc2n1Cc1ccccc1)CN(Cc1ccccc1)CC3
62. Cc1cc(C(=O)CSc2nnc3n2CCCCC3)c(C)n1C1CCS(=O)(=O)C1 (stereo not drawn)
63. CN(CCC#N)C(=O)CN1CCN(S(=O)(=O)c2ccc(Br)cc2Cl)CC1
64. COc1cc(CNc2nn[nH]n2)cc(Br)c1OCc1ccc(C)cc1
65. CCOc1coc(C(=O)NCCCc2ccccc2)cc1=O
66. CCCNc1nc2c(C)cccn2c(=O)c1C=C1SC(=S)N(Cc2ccccc2)C1=O

screen / no.,61,62,63,64,65,66
NPYLR7 ag,-4.2,6.8,10.8,-9.5,12.8,12.2
NPYLR7 ag max-min,-6.3,5.7,4.5,-12.0,6.3,15.5

67. CCc1c(C(=O)NCCSc2nnnn2C)[nH]c2ccccc12
68. CCOC(=O)CC1COCCN1C(=O)c1cn(CCC2CCCCC2)nn1 (stereo not drawn)
69. COc1c(F)cccc1C(=O)NCC1CCN(C2CCOCC2)C1 (stereo not drawn)
70. Cc1onc(-c2ccccc2Cl)c1C(=O)Nc1ccccc1F
71. COCCN(Cc1cc(NC(=O)c2cccc(F)c2)ccc1N(C)C)S(=O)(=O)c1ccc(F)cc1
72. CCc1ncc2c(n1)CN(C(=O)c1cc(=O)n(C)c3ccccc13)C2

screen / no.,67,68,69,70,71,72
NPYLR7 ag,0.9,6.2,22.1,2.9,16.9,5.8
NPYLR7 ag max-min,-5.8,6.6,8.1,2.4,18.0,-1.9

73. Cc1ccc(C)c(OC(C)C(=O)N(C)Cc2ncc(C)[nH]2)c1 (stereo not drawn)
74. CCN(CC)S(=O)(=O)NC(=O)C(C)c1cccc(F)c1 (stereo not drawn)
75. Cn1ncc(N2CCC(CNC3CCC4(CCNCC4)CC3)C2)cc1=O (stereo not drawn)
76. CCOCCCN(Cc1nc(C(=O)OC)cs1)C(=O)Nc1ccc(F)c(F)c1
77. O=C(Nc1cccnc1N1CCN(C(=O)c2cccc(Cl)c2)CC1)c1ccc2c(c1)OCO2
78. COCCN(CC(=O)N(Cc1ccccc1)Cc1sccc1C)C(=O)c1cccc(C(F)(F)F)c1

screen / no.,73,74,75,76,77,78
NPYLR7 ag,-0.4,2.2,1.7,-6.7,23.5,-5.0
NPYLR7 ag max-min,-3.8,-1.1,5.1,5.0,15.4,5.5

79. CC(=O)N[C@@H](Cc1cn(-c2ccc(Cl)cn2)cn1)C(=O)O
80. CCC(C(=O)Nc1ccc(NC(=O)c2ccc(C)o2)cc1)n1cccc1 (stereo not drawn)
81. CCOc1ccnc(NCCCN2CCCC2=O)n1
82. CCn1c(C)cc(C(=O)Nc2ccc(Br)c(C)c2)c1C
83. CC(C)(C)NC(=O)COC(=O)c1cc(-c2ccc(Br)cc2)nc2ccccc12
84. CC(=O)Nc1cccc(C(=O)N2CCOC(COc3ccc(F)cc3)C2)c1 (stereo not drawn)

screen / no.,79,80,81,82,83,84
NPYLR7 ag,9.9,24.0,6.4,4.4,-0.4,4.2
NPYLR7 ag max-min,14.9,14.5,5.9,2.5,1.3,5.1

85. O=C(c1cc([N+](=O)[O-])cc([N+](=O)[O-])c1)N1CCCN(c2nc(Cc3ccc(Cl)cc3)ns2)CC1
86. CC(C)(C)C(=O)NCCCC(=O)NCc1cc(F)cc(Br)c1
87. NC(=O)COc1ccc(C2Nc3ccccc3C(=O)N2CCc2ccccc2)cc1 (stereo not drawn)
88. Cc1nc(C(F)(F)F)ccc1C(=O)N1CCC1(C)C(=O)N(C)Cc1ccccc1 (stereo not drawn)
89. O=C(NCc1cccnc1)C1CN(c2nccc(CCC(F)(F)F)n2)CCN1 (stereo not drawn)
90. CCNC(=O)N1CCN(c2cc(Oc3ccc(C)cc3OC)ncn2)CC1
91. Cc1ccc(C(=O)Nc2ccc(C3SCC(=O)N3c3ccc4c(c3)CCC4)cc2)cc1[N+](=O)[O-] (stereo not drawn)
92. Cc1ccc(F)c(N2CCCC(NC(=O)N(C)C3CCOCC3)C2)c1 (stereo not drawn)

screen / no.,85,86,87,88,89,90,91,92
NPYLR7 ag,0.1,7.9,3.5,6.4,-4.5,-9.2,2.1,-24.0
NPYLR7 ag max-min,11.0,9.2,-4.2,4.0,-7.0,-3.5,5.0,-24.0

Not all compounds are listed. The share of hits here may be higher or lower than overall.
